# Screening data (PubChem BioAssay)
# TNAP act hiacc – TNAP activators at high phosphate acceptor level, primary screen, biochemical, luminescence, uHTS | 200,000 tested, under 10 active | activation factor at 20 µM | purified TNAP, CDP-star luminescence, 1 M DEA, 30 min; active compounds read high; 0 = EDTA background, 1 = DMSO-only activity;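 active means activation factor at least 2 at 20 µM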
# Target sequence (P05186 whole entry, looked up): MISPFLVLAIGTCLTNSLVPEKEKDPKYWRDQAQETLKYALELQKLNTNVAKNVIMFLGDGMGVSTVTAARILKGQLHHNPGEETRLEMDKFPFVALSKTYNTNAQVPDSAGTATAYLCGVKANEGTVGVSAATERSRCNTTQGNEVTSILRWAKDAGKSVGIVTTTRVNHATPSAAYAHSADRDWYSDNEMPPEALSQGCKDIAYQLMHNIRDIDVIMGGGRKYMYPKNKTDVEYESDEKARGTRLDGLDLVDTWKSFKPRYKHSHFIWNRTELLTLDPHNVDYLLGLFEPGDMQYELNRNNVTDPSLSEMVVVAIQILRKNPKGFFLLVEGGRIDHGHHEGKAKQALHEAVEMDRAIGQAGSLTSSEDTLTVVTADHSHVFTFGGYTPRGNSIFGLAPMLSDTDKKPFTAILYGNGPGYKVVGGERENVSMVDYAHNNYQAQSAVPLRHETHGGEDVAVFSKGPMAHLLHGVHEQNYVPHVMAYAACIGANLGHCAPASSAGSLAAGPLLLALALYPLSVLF
#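 Test system – human TNAP · Doses – 20 µM single point · Incubation – 30 min, room temperature · Signal – luminescent substrate turnover signal · Read-out basis – activation factor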
# TNAP inh hiacc – human TNAP enzyme inhibitors, primary screen, biochemical, luminescent, high phosphate acceptor level, uHTS; purified TNAP, CDP-star luminescence, 1 M DEA; inhibition, % at 20 µM; 0.03% of 200,000 active; AID 1135, 2008;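 active means over 50% inhibition of tissue-nonspecific alkaline phosphatase at 20 µM in the single-dose screen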;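 further: plate controls were DMSO wells for no effect and EDTA-quenched wells as full inhibition for full effect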
# bIAP inhibitor – bovine intestinal alkaline phosphatase inhibitors, primary screen, selectivity assay for TNAP inhibitor project, biochemical, bovine IAP, CDP-star luminescence | alkaline phosphatase, intestinal [Bos taurus] | purified bovine IAP, 30 min | inhibition, % at 20 µM | 190,000 tested, under 10 active | AID 1019, 2008;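 active means over 50% inhibition of intestinal alkaline phosphatase at 20 µM in the single-dose screen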
#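 Incubation: 30 min reaction at room temperature / Material: purified bovine intestinal alkaline phosphatase (IAP) enzyme / Input: enzyme at 1/65,000,000 dilution / Dosing: 20 µM single dose / Signal: CDP-star luminescence signal / Reagent: CDP-star chemiluminescent phosphatase substrate, 30 µM final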
# bIAP activator – bovine intestinal alkaline phosphatase activators, primary screen, biochemical, bovine IAP, CDP-star luminescence | 0.17% of 200,000 active | alkaline phosphatase, intestinal [Bos taurus] | AID 1016, 2008 | purified bovine IAP, 30 min; active compounds read high; fold of DMSO-control signal, blank-subtracted | activation factor at 20 µM;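 active means activation factor of 2 or more at 20 µM, a signal rise over negative controls twice the positive control's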
# TNAP inh noacc – human TNAP enzyme inhibitors, primary screen, biochemical, luminescent, no phosphate acceptor, uHTS. Alkaline phosphatase, tissue-nonspecific isozyme (Homo sapiens), P05186. purified TNAP, CDP-star luminescence, 30 min. inhibition, % at 20 µM. 0.26% of 200,000 active. AID 1012, 2008;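 active means tissue-nonspecific alkaline phosphatase inhibition above about 50% at 20 µM in the single-dose screen, limit read from the data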;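 further: 0% = DMSO negative control and 100% = EDTA positive control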
# Diaph inh CS – diaphorase inhibitors and chemical oxidizers, primary screen, counter-screen for diaphorase-coupled primary assays, biochemical, uHTS, resorufin fluorescence | diaphorase resazurin-to-resorufin fluorescence, NADH, 16 min; bacterial (C. kluyveri) enzyme, not human | inhibition, % at 20 µM | 0.69% of 190,000 active;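 active means primary screen inhibition at 20 µM above a set limit, cut at about 50% in these data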;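 further: plate controls were DMSO with full reaction for no effect and wells lacking NADH for full effect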
#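 System: Bacterial diaphorase enzyme (C. kluyveri) | Incubation: 16-min room-temperature incubation before reading | Benchmarks: No-NADH positive control and DMSO neutral control | Measured by: Resorufin fluorescence 544/590 nm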
# Lmaj promast – Leishmania major promastigote growth inhibition, primary screen; AID 1063, 2008; 9% of 200,000 active; inhibition, % at 10 µM; Leishmania major promastigotes, resazurin fluorescence viability; in the data active means inhibition above about 50%;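 further: promastigotes grown with compound for 44 hours at 28 °C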
# * = called active by the depositor. The list is partial, so the mix of outcomes need not match the whole.
# The first eleven compounds as a preview:
compound,TNAP act hiacc,TNAP inh hiacc,bIAP inhibitor,bIAP activator,TNAP inh noacc,Diaph inh CS,Lmaj promast
O=C1CSC(c2ccccn2)N1c1ccccc1 (configuration not stated),1,-1,7,0.9,-9,11,-1
NC(=O)c1ccc(NC(=O)C2CCCO2)cc1 (configuration not stated),1,-4,-2,1,-9,11,-4
COc1ccccc1-c1nnc2n1N=C(c1ccc(O)c(O)c1)CS2,1,4,1,1,67*,51*,3
CCOC(=O)CNC(=O)CSc1nnc(-c2ccncc2)n1-c1ccc(Cl)cc1,1,-4,-1,1,-11,12,-5
CC(C)CN(CC(C)C)S(=O)(=O)N1CCC(C(=O)NCc2ccc(F)cc2)CC1,1,-2,1,1,-9,17,13
Cc1ccc(C(=O)COc2ccccc2C(=O)Nc2ccccc2)cc1,1.1,-5,-6,1.1,-11,-5,5
C=CCn1c(SCC(=O)N2CC(=O)Nc3ccccc32)nc2scc(-c3ccccc3)c2c1=O,1.1,-11,-5,1,-19,26,94*
O=C(NCC1CCCO1)c1cccc(F)c1 (configuration not stated),1.1,-6,0,1,-14,8,-6
CC(C)(C)c1nc(SCC(=O)Nc2ccc3c(c2)OCCO3)c2ccccc2n1,1,2,6,0.9,-6,10,1
CCSc1nnc(-c2sc3nnc(-c4ccccc4)c(-c4ccccc4)c3c2N)o1,1,1,38,0.6,6,12,28
CC1(C)CC(=O)C(C(c2ccco2)C2C(=O)CC(C)(C)CC2=O)C(=O)C1,1,0,11,0.9,6,20,-7

# This part in full, from the start:
compound,TNAP act hiacc,TNAP inh hiacc,bIAP inhibitor,bIAP activator,TNAP inh noacc,Diaph inh CS,Lmaj promast
O=C1CSC(c2ccccn2)N1c1ccccc1 (configuration not stated),1,-1,7,0.9,-9,11,-1
NC(=O)c1ccc(NC(=O)C2CCCO2)cc1 (configuration not stated),1,-4,-2,1,-9,11,-4
COc1ccccc1-c1nnc2n1N=C(c1ccc(O)c(O)c1)CS2,1,4,1,1,67*,51*,3
CCOC(=O)CNC(=O)CSc1nnc(-c2ccncc2)n1-c1ccc(Cl)cc1,1,-4,-1,1,-11,12,-5
CC(C)CN(CC(C)C)S(=O)(=O)N1CCC(C(=O)NCc2ccc(F)cc2)CC1,1,-2,1,1,-9,17,13
Cc1ccc(C(=O)COc2ccccc2C(=O)Nc2ccccc2)cc1,1.1,-5,-6,1.1,-11,-5,5
C=CCn1c(SCC(=O)N2CC(=O)Nc3ccccc32)nc2scc(-c3ccccc3)c2c1=O,1.1,-11,-5,1,-19,26,94*
O=C(NCC1CCCO1)c1cccc(F)c1 (configuration not stated),1.1,-6,0,1,-14,8,-6
CC(C)(C)c1nc(SCC(=O)Nc2ccc3c(c2)OCCO3)c2ccccc2n1,1,2,6,0.9,-6,10,1
CCSc1nnc(-c2sc3nnc(-c4ccccc4)c(-c4ccccc4)c3c2N)o1,1,1,38,0.6,6,12,28
CC1(C)CC(=O)C(C(c2ccco2)C2C(=O)CC(C)(C)CC2=O)C(=O)C1,1,0,11,0.9,6,20,-7
Fc1cccc(CN2CCCCCCC2)c1,1,-1,-12,1.1,-10,19,-8
CC(C)(C)NC(=O)C1Cc2ccccc2CN1C(=O)Nc1ccccc1Cl (configuration not stated),1.1,-5,-4,1,-13,5,6
CCCn1nc2cc(C(=O)NCc3ccc(OC)cc3)ccc2c1OCC,1,-3,2,1,-6,13,-6
COc1cc(CNC2CCCC2)cc(Cl)c1OCc1ccccc1Cl,1,-5,12,0.9,-11,-6,100*
O=C1CC(N2CCN(c3nc4ccccc4s3)CC2)C(=O)N1c1cccc(F)c1 (configuration not stated),1,-4,-4,1,-7,19,-6
Cc1nn(Cc2c(Cl)cccc2Cl)c(C)c1NC(=O)c1cn(-c2ccccc2)nc1-c1ccccc1,1.1,-15,-27,1.3,-28,-3,83*
CCOc1cc(/C=N/n2cnnc2)ccc1OC(=O)c1cccc([N+](=O)[O-])c1,1,0,6,0.9,4,0,-2
O=C(NCc1cccnc1)C1CC2c3ccccc3C1c1ccccc12 (configuration not stated),1,-2,-15,1.2,2,-2,-1
CC(=O)Nc1ccc(OCC(O)Cn2c3ccccc3c3ccccc32)c(C)c1 (configuration not stated),1.1,-7,-2,1,-12,14,75*

# (listing goes on)
compound,TNAP act hiacc,TNAP inh hiacc,bIAP inhibitor,bIAP activator,TNAP inh noacc,Diaph inh CS,Lmaj promast
O=C(Nc1ccc(-c2nc3ccccc3o2)cc1)c1cccnc1,1,4,9,0.9,2,15,12
Cc1ccc(NS(=O)(=O)c2cc(C(=O)NCc3ccccn3)ccc2Cl)cc1C,1,-4,5,0.9,-4,7,7
CN(CC(=O)NCc1ccc(F)cc1)S(=O)(=O)c1cccc2nsnc12,1.1,-5,3,1,1,10,3
COc1ccc(C)cc1NC1=C(Cl)C(=O)N(C2CCCCC2)C1=O,1,3,25,0.8,0,28,11
COc1cccc(NC(=O)c2oc3ccccc3c2NC(C)=O)c1,1,0,6,0.9,-3,6,-1
CC(C)CC(=O)N(c1ccc(F)cc1)C1C=CS(=O)(=O)C1 (configuration not stated),1,-3,6,0.9,-11,9,3
O=C(O/N=C\c1ccc(N2CCCCC2)c([N+](=O)[O-])c1)c1cccc(Cl)c1,1,0,16,0.8,-4,19,8
CC(=O)NCCn1c(SCc2ccc(C)cc2)nc2ccccc2c1=O,1,-3,-5,1,-7,16,7
O=C(Nc1cccc(C(=O)N2CCOCC2)c1)c1ccccc1,1,-5,3,1,-15,6,9
Cc1cc(/C=C(/C#N)C(=O)Nc2ccccc2)c(C)n1-c1cccnc1,1,-2,10,0.9,-8,17,-4
FC(F)(F)c1cccc(Oc2nc(-c3ccccc3)nnc2C(F)(F)F)c1,1,1,8,0.9,-3,-12,-2
Cc1ccc(C(CC(=O)c2ccco2)SCCO)cc1 (configuration not stated),1,-2,10,0.9,20,16,33
CCOC(=O)c1cc2c(=O)n3cccc(C)c3nc2n(Cc2ccco2)c1=NC(=O)c1ccccc1,1,0,3,1,-6,50,27
CCOC(=O)C(C(=O)N(C)C)c1ncc(C(F)(F)F)cc1Cl (configuration not stated),0.9,7,0,1,3,-3,-6
Cc1cc(C)n(-c2nc(-c3ccc(Cl)c(Cl)c3)cs2)n1,1.1,-6,0,1,0,0,-3
COc1ccc(Cl)cc1C(=O)N1CCN(c2ccccn2)CC1,1,-1,11,0.9,-5,0,-5
CCOc1ccc(/C=N/NC(=O)COc2ccccc2-c2ccccc2)cc1,1.1,-6,4,1,15,10,-6
CC(=O)Nc1ccc(-c2ccccc2)s1,1,2,-4,1,8,8,-4
CC(C)(C)c1ccc(C(=O)N2CCC(C(=O)NCCC3=CCCCC3)CC2)cc1,1.1,-8,-23,1.2,-11,23,17
COc1ccc2[nH]c3nc(SCC(=O)NNC(=O)c4ccc(OC)c(OC)c4)nnc3c2c1,1,-4,2,1,-119,6,-8

# 2 of the compounds above, with values under each structure.
# Second line of a record – TNAP act hiacc	TNAP inh hiacc	bIAP inhibitor	bIAP activator	TNAP inh noacc	Diaph inh CS	Lmaj promast
CCOc1ccc(/C=N/NC(=O)COc2ccccc2-c2ccccc2)cc1
→ 1.1	-6	4	1	15	10	-6
CC(=O)Nc1ccc(-c2ccccc2)s1
→ 1	2	-4	1	8	8	-4

# The list goes on.
compound,TNAP act hiacc,TNAP inh hiacc,bIAP inhibitor,bIAP activator,TNAP inh noacc,Diaph inh CS,Lmaj promast
CCOC(=O)N1CCN(C(=O)c2ccc3c(=O)n(-c4ccc(F)cc4)c(=S)[nH]c3c2)CC1,1.1,-6,9,0.9,-11,27,-5
O=[N+]([O-])c1cc2c(cc1/C=N/Nc1nc(Nc3ccccc3)nc(N3CCCCC3)n1)OCO2,1,-2,20,0.8,-2,16,30
Cc1ccccc1-c1noc(-c2ccc(Cl)cc2)n1,1,-3,4,1,2,5,-6
O=C(/C=C/c1ccc(-c2ccccc2[N+](=O)[O-])o1)c1ccc(F)cc1,1,4,40,0.6,-1,35,2
COc1cccc(C(=O)N/N=C/c2cn[nH]c2-c2ccc(OC)cc2OC)c1,1,0,-34,1.3,-13,7,-6
CCC(C)(C(=O)NC1CCCCC1)N(Cc1ccco1)C(=O)Cc1cccs1 (configuration not stated),0.9,7,0,1,18,5,0
Cc1cc(OCn2ccc(C(=O)O)n2)ccc1Cl,1,1,16,0.8,-5,2,-2
Cc1cc(NC(=O)c2cccc(F)c2)no1,1,-1,-6,1.1,-10,5,-1
Oc1ccc2ccccc2c1CNc1cnc2ccccc2c1,1.1,-5,14,0.9,3,60*,-5
CC(NC(=O)c1cc2ccccc2o1)C(=O)O (configuration not stated),1,0,3,1,-5,10,13
N#CC1=C(N)SC(N)=C(C#N)C1c1cccc(O)c1,1,0,-5,1,-15,23,-6
CCN(CC)c1ccc2c(Cl)c(Br)c(=O)oc2c1,0.9,5,16,0.8,14,5,69*
NS(=O)(=O)c1ccc(NC(=O)c2ccccc2C(=O)N2CCCCC2)cc1,1,2,5,0.9,-5,4,-3
O=C(/C=C1\NCC2c3ccccc3CCN2C1=O)c1ccccc1 (configuration not stated),0.9,5,15,0.9,-2,-6,-2
CCC(C)C1NC(=S)N(Cc2ccccc2)C1=O (configuration not stated),1,-3,12,0.9,-5,8,1
CCn1c(-c2cccnc2)n[nH]c1=S,1,1,0,1,2,10,-8
COc1ccc(NC2(c3ccc(Cl)cc3)C(=O)c3ccccc3C2=O)cc1,1,0,9,0.9,-10,17,-9
CCCCNC(=O)COC(=O)c1cc(F)c(F)cc1Cl,1.1,-7,9,0.9,-14,16,-8
CCOC(=O)c1c(C)n(C)c2ccc(OC)c(NC(=O)CN3CCN(C(=O)c4ccco4)CC3)c12,1.1,-7,-18,1.2,-12,1,0
COc1ccc(OCC(=O)Nc2cc(OC)cc(OC)c2)cc1,1.1,-8,14,0.9,-11,14,-8

# Next part:
compound,TNAP act hiacc,TNAP inh hiacc,bIAP inhibitor,bIAP activator,TNAP inh noacc,Diaph inh CS,Lmaj promast
COc1ccc(C(=O)NC(NC(=S)Nc2ccc(S(N)(=O)=O)cc2)C(Cl)(Cl)Cl)cc1 (configuration not stated),1,-2,0,1,27,24,-13
C/C(CC1CC2=C(CC1(C)C)C(C)(C)CCC2)=N\NC(N)=S (configuration not stated),0.9,7,39,0.6,-11,15,101*
Cc1sc2c(c1C)c(=O)n(-c1ccccc1)c1nnc(C)n21,1.1,-5,-5,1.1,-4,6,-2
COc1ccc(N(C)C(=O)c2ccc3nc(-c4ccccc4)c(-c4ccccc4)nc3c2)cc1,1,-2,5,1,-4,37,20
CCOC(=O)CN1NC2(CCC(C(C)(C)C)CC2)NC1=S (configuration not stated),1,-1,-4,1,-1,0,-5
Cc1cc2cc(C(c3nnnn3C(C)(C)C)N(Cc3ccco3)CC3CCCO3)c(=O)[nH]c2cc1C (configuration not stated),1,-1,-5,1.1,8,12,-6
CC1CC(C)CN(Cc2nc(N)nc(Nc3ccccc3)n2)C1 (configuration not stated),1,0,3,1,-1,16,10
CCOc1ccc(C2=Nn3c(nnc3-c3ccccc3OC)SC2)cc1,1,-4,-1,1,-2,15,14
CC(=O)NCCc1cc2cc(C)c(C)cc2[nH]c1=O,1,4,8,0.9,-4,3,1
COc1ccc(C(C(=O)NC(C)(C)C)N(C(=O)CNC(=O)c2cccs2)c2ccc(C(C)C)cc2)cc1OC (configuration not stated),1.1,-5,-3,1,-8,13,3
CN1CC(c2ccccc2Cl)C2(COc3ccccc3C2=O)C12C(=O)Nc1ccccc12 (configuration not stated),0.9,8,7,0.9,7,4,31
CCOC(=O)c1cncc(C(=O)O)c1,1.1,-6,4,1,12,4,-1
